AF4-AF9 inh: blocks AF4 peptide binding to human AF9 | AlphaScreen, biotin-AF4 peptide binding to FLAG-AF9 | inhibition, % at 10 µM | 350,000 compounds, 0.47% hits | AID 651704;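 active = every replicate reaching a set inhibition limit, whatever the replicate mean, cut at about 25% in these data; inconclusive = mean inhibition reaches that limit but some replicates miss it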;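 also: 0% = plate neutral control median and 100% = total signal loss; the record names both 10 and 1 µM as test concentration; the first replicate is given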
HNF4A DNA FP: change in binding of human HNF4 alpha to DNA. P41235. HNF4a-FITC DNA binding, fluorescence polarization, 1 h. activity change, % at 10 µM. 360,000 compounds, 0.3% hits. AID 1224865; in the data active = activity change above about 30%, passing the limit was not always enough;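 also: controls were the assay level and a saturating level of protein; the project sought stronger binding though the title names inhibitors; some compounds called inactive have numbers as strong as hits; positive values seem to mean higher polarization but the record does not say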
Target sequence (P41235 whole entry, looked up): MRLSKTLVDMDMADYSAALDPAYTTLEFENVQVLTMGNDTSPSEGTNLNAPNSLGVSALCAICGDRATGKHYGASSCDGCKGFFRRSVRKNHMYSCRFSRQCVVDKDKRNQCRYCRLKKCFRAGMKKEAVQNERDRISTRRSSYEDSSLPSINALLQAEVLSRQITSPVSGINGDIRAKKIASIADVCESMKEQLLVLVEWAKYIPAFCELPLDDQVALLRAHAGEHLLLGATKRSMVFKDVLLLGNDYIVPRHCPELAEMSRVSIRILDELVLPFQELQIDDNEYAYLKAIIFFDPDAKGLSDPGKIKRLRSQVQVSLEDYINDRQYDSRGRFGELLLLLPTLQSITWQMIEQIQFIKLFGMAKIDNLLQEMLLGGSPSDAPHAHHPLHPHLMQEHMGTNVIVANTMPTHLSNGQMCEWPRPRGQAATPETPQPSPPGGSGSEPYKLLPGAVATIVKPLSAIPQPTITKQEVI
Vif A3G: HIV-1 Vif–A3G interaction blockers – biochemical, TR-FRET, GST-Vif 1-94, biotin-A3G peptide, dose response retest, primary screen (AID 1117319); TR-FRET GST-Vif / biotin-A3G peptide binding; higher % means a stronger effect; test concentration not given here; strong numbers were not always called active; one-dose inhibition, %; IC50 in µM for titrated hits; 260,000 compounds, 0.57% hits;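 active = above the screen mean plus three standard deviations and confirmed in dose response; inconclusive = results disagree or hit not tested in dose response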;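 also: Vif residues 1-94 fused to GST binding biotinylated APOBEC3G peptide 110-148; 0% = full assay without inhibitor and 100% = GST in place of GST-Vif; retest series ran down from 100 µM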
ALR H2O2 inh: human ALR oxidase inhibition via reduced H2O2. inhibition, % (test concentration not listed). 290,000 compounds, 3.8% hits. purified ALR, DTT oxidation, H2O2 HRP-luminol luminescence. P55789;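 active = mean and each replicate at 75% or more; inconclusive = only one of the two met; inactive = neither met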;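 also: stock transfer was 7.5 nL into about 7.5 µL; 0% = neutral wells and 100% = wells with inactivated enzyme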
Target sequence (P55789 whole entry, looked up): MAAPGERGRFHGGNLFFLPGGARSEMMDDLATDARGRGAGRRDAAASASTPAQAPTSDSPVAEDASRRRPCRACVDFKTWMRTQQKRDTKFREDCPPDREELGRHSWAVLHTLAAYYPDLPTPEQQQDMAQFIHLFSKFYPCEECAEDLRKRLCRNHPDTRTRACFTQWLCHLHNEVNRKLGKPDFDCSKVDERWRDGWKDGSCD
E coli growth: blocks Escherichia coli growth; OD600, 23 h; active compounds read low; OD600 absorbance (no concentration beside the values); 330,000 compounds, 0.21% hits; AID 1053175;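 active = OD600 absorbance below the run mean of sample wells minus 3.6 SD, in any replicate, cut at about 0.56 in these data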;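 also: stock transfer was 300 nL into about 60 µL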
rRNA inh HTS: selective bacterial rRNA inhibition in E. coli. 350,000 compounds, 1.6% hits. E. coli WT GFP vs humanized-ribosome RFP mutants, fluorescence, 24 h; active compounds read low; DMSO median 0, no signal -100. GFP signal change (wild-type ribosome), % (no concentration beside the values);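 active = significant combined selectivity score with lowered wild-type GFP, culture density cut under 30%, mutant RFP and density less affected; inactive = any of these conditions unmet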; also: one replicate is shown; some compounds called inactive have numbers as strong as hits
FGF22 binding: FGF22 (human) thermal shift binding; Q9HCT0; recombinant FGF22 thermal shift, SYPRO orange fluorescence; percent of sucrose octasulfate shift, DMSO zero; calls only at 9.99 µM; 340,000 compounds, 1.5% hits; AID 651658;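 active = melting point raised past a set limit in the mean and every replicate; inconclusive = no clear call; three in four hits are not shown here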
Target sequence (Q9HCT0 whole entry, looked up): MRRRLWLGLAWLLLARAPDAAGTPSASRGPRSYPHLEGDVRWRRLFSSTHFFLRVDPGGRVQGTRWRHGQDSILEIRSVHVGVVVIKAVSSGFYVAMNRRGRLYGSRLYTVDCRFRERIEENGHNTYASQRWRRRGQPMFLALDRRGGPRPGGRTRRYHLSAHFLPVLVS
rRNA inh HTS OD600: further read-out of rRNA inh HTS, marked with its call; OD600 change, %; measured here: OD600 growth;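 optical density of the mix in the first replicate; 0 = DMSO median and -100 = no signal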
rRNA inh HTS RFP: also measured in rRNA inh HTS; calls as there; RFP signal change, %; measured here: RFP humanized mutant strains;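 first replicate; 0 = DMSO median and -100 = no signal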
Numbers without * were called inactive; i = inactive; ? = inconclusive; . = no result given; & = joins results of further samples. An excerpt (hit frequency here may not be typical).

SMILES	AF4-AF9 inh	HNF4A DNA FP	Vif A3G	ALR H2O2 inh	E coli growth	rRNA inh HTS	rRNA inh HTS OD600	rRNA inh HTS RFP	FGF22 binding
COc1ccc(S(=O)(=O)N2CCC(NC(=O)C3CCCCC3)CC2)cc1	0.2	-1.4	.	.	0.71	0	14	4.0	i
COc1ccc(C2CC(=O)Oc3cc4c(cc32)OCO4)cc1 (centres undefined)	2.1	-1.3	-1%	.	0.69	-6	-2	1.1	i
Cc1ccc(N(Cc2ccco2)C(=O)c2cccc(S(=O)(=O)N(C)C)c2)cc1	.	0.3	13%	-14	0.69	.	.	.	.
Cn1cccc1CNC(=O)Nc1ccc(Cl)cc1	.	3.0	13%	-13	0.64	.	.	.	.
COC(=O)c1cc(NC(=O)Cc2cccs2)cc(C(=O)OC)c1	-1.4	-11	.	-2	0.68	3	6	-2.8	i
Cc1ccc(N2C(=O)NC(NC(=O)C(C)(C)C)(C(F)(F)F)C2=O)cc1C (centres undefined)	0.8	5.8	1%	4	0.72	.	.	.	i
CC(=O)Nc1ccc(NC(=O)COC(=O)Cc2c[nH]c3ccccc23)cc1	.	-3.1	32%	83*	0.67	.	.	.	.
O=C(NCC1CCCO1)c1cc2n(n1)C(C(F)(F)F)CC(c1ccc(F)cc1)N2 (centres undefined)	.	-0.7	30%	-11	0.71	.	.	.	.
C#CC1(NC(=O)NC(=O)c2c(F)cccc2F)CCCCC1	.	2.8	0%	-2	0.66	0	-1	-3.6	i
COc1ccccc1C(CNC(=O)C1CC(=O)N(Cc2ccc(C)cc2)C1)N1CCCC1 (centres undefined)	0.0	3.5	-8%	-11	0.64	11	14	1.3	i
O=C(Cn1ccc([N+](=O)[O-])n1)N1CCCc2ccccc21	-26	-1.1	>100µM*	-7	0.71	14	6	2.7	i
CCCNC(=O)C[C@@H]1CC[C@H]2[C@@H](COc3ccc(NC(=O)c4cccc(OC)c4)cc3C(=O)N2C)O1	-1.2	.	.	.	.	0	4	-0.7	i
O=c1cc(CN2CCN(c3ccccc3)CC2)c2ccccc2o1	-5.3	4.2	.	.	.	-1	1	-2.8	i
CC=Cc1ccc2n(c1=O)C[C@@H]1[C@@H](CO)[C@H](C(=O)Nc3ccccc3)[C@H]2N1C(=O)CC1CC1 (mixture of isomers)	0.4	.	.	.	.	-5	1	2.1	i
Cc1nn(C)c(C)c1Nc1ccc(N2C(=O)C3CC=CCC3C2=O)cc1[N+](=O)[O-] (centres undefined)	2.0	-1.2	6%	-14	0.68	0	0	-1.5	i
O=C1NC(=O)C2(CCCc3ccccc32)N1 (centres undefined)	-2.7	-1.5	-1%	-8	0.71	4	14	-2.8	i
CCn1nc(C(=O)OCC(=O)c2c[nH]c3ccccc23)c2ccccc2c1=O	.	-0.7	-4%	-7	0.67	.	.	.	.
O=C(CN(Cc1ccccc1Cl)C(=O)c1ccc(CN2CCOCC2)o1)NCc1ccccc1	.	2.5	14%&-5%	.	0.64	.	.	.	.
O=C(CCN1C(=O)COc2ccccc21)N1CCCCC1	.	1.9	2%	-4	0.67	.	.	.	.
Cc1ccc(-n2nc(CC#N)c(C#N)c2N)cc1	.	0.3	14%	-10	0.66	.	.	.	.
COc1ccc(C(=O)C(=O)N2CCN(S(=O)(=O)c3cccc4c(N(C)C)cccc34)CC2)cc1OC	-9.7	.	.	.	.	6	9	4.1	i
COc1ccc(OC)c(-n2c(-c3ccc(C)cc3)n[nH]c2=S)c1	.	-0.7	-10%	.	0.72	.	.	.	.
O=S(=O)(c1ccccc1)N1CCN(c2nnc(-c3ccccc3)c3ccccc23)CC1	12	-1.0	.	1	0.68	-13	-15	0.6	i
C[C@@H]1CN([C@H](C)CO)C(=O)Cc2cc(NC(=O)Nc3ccccc3)ccc2O[C@@H]1CN(C)S(=O)(=O)c1cn(C)cn1	-1.2	.	.	.	.	0	3	-2.9	i
COc1ccccc1C(=O)Nc1ccc2c(c1)OC[C@@H](C)N(C)C[C@@H](C)[C@H](OC)CN(C)C2=O	-1.4	.	.	.	.	2	1	-1.7	i
COc1ccc(CCN(Cc2cc3cc(C)ccc3[nH]c2=O)C(C)=O)cc1OC	-1.3	1.9	-9%	-4	0.69	9	2	0.3	.
CC(NC(=O)Cc1ccccc1[N+](=O)[O-])c1ccccc1 (centres undefined)	-1.3	.	.	-5	0.62	6	9	-3.0	i
O=C(NC1CCCC1)C1CCN(c2cnccn2)CC1	-1.7	2.0	-5%	.	0.62	13	14	-5.6	i
COc1cccc(C(=O)Nc2ccc3c(c2)C(=O)N(C)C[C@@H](OC)[C@@H](C)CN(C(C)=O)[C@@H](C)CO3)c1	0.3	.	.	.	.	-3	-7	0.4	i
Cc1ccccc1-n1ncc2c1CC(C)(C)CC2NC(=O)CSc1ccncc1 (centres undefined)	-2.0	1.4	.	-7	0.73	-4	-13	0.8	i
Cc1ccc(-n2c(O)c(/C=N/n3cnnc3)c3ccccc3c2=O)cc1	11	5.2&0.2	8%&16%	39&30	0.63&0.61	9	16	1.8	i
Cc1cccn2cc(CNC(=O)CC3CCCC3)nc12	.	1.4	3%	-3	0.67	.	.	.	.
CC(C)c1ccc(O)c(NC(=S)NC(=O)c2ccc3c(c2)OCO3)c1	-0.2	-0.7	.	?	0.71	-58	-75	-15	i
C[C@@H]1CN([C@H](C)CO)C(=O)Cc2cc(NC(=O)CCN3CCOCC3)ccc2O[C@@H]1CN(C)C(=O)Nc1ccc(F)cc1	-22	.	.	.	.	-2	-1	1.2	i
Cc1cccc(NC(=O)CSc2n[nH]c(-c3cccnc3)n2)c1	0.9	-1.9	.	2	.	-4	-1	-2.3	i
C[C@@H]1CN([C@H](C)CO)C(=O)Cc2cc(NC(=O)Nc3ccc(F)cc3)ccc2O[C@@H]1CN(C)S(=O)(=O)c1cccs1	1.8	.	.	.	.	-5	-12	4.5	i

Profiles, quoted from the list.
COc1ccc(CCN(Cc2cc3cc(C)ccc3[nH]c2=O)C(C)=O)cc1OC is listed as AF4-AF9 inh: -1.3; HNF4A DNA FP: 1.9; Vif A3G: -9%; ALR H2O2 inh: -4; E coli growth: 0.69; rRNA inh HTS: 9; rRNA inh HTS OD600: 2; rRNA inh HTS RFP: 0.3; FGF22 binding: .
O=C(NC1CCCC1)C1CCN(c2cnccn2)CC1 is listed as AF4-AF9 inh: -1.7; HNF4A DNA FP: 2.0; Vif A3G: -5%; ALR H2O2 inh: .; E coli growth: 0.62; rRNA inh HTS: 13; rRNA inh HTS OD600: 14; rRNA inh HTS RFP: -5.6; FGF22 binding: i

(cont.)
SMILES	AF4-AF9 inh	HNF4A DNA FP	Vif A3G	ALR H2O2 inh	E coli growth	rRNA inh HTS	rRNA inh HTS OD600	rRNA inh HTS RFP	FGF22 binding
Cc1nc(-c2ccccc2)sc1C(=O)/C=C/c1ccccc1	.	-0.1	-9%	44	.	.	.	.	.
C[C@@H]1CN([C@@H](C)CO)C(=O)Cc2cc(NC(=O)CCCCCC(=O)Nc3ccccc3N)ccc2O[C@@H]1CN(C)CC1CCCCC1	0.6	.	.	.	.	1	4	-0.8	i
O=C(O)C1CCCCC1C(=O)NC1C2CC3CC(C2)CC1C3 (centres undefined)	1.1	1.8	.	5	0.61	-4	0	-2.4	i
COc1cc2[nH]c(=S)n(CCN3CCOCC3)c(=O)c2cc1OC	.	2.4	0%	15	0.7	.	.	.	.
Cc1ccc(NC(=O)CCc2c(C)nc3ncnn3c2C)cc1	.	4.5	18%	-18	0.73	.	.	.	.
CCN(CC)S(=O)(=O)c1ccc(Cl)c(NC(=O)CSc2cccc[n+]2[O-])c1	7.6	-0.6	-1%	.	0.7	-9	-18	-5.8	i
CC(C)[C@H](NC(=O)N1CC(=O)Nc2ccccc21)C(=O)N[C@H](Cc1ccccc1)C(=O)O	-2.4	6.6	.	-6	0.74	.	.	.	i
CCOC(=O)CNC(=O)c1nn(-c2ccc(OCC)cc2)c(=O)c2ccccc12	.	-2.0	?	-11	0.76	.	.	.	.
COc1ccccc1/C=N\NC(=O)c1c(C)nc2ccc(Cl)cn12	1.8	1.5	.	50	.	13	0	-1.9	i
Cc1ccccc1-n1nc(-c2cccnc2)cc1C(=O)N/N=C/c1ccncc1	2.0	-2.2	8%	-5	.	-2	-10	-2.1	i
O=C(C1CCCN(Cc2cccc(Cl)c2)C1)N1CCCCC1 (centres undefined)	-1.7	0.0	-9%	-2	0.67	6	12	-2.4	i
CNC(=O)C(NC(=O)CNC(=O)c1ccc(Cl)cc1)C(C)(C)C (centres undefined)	0.8	2.7	-5%	-5	0.73	4	-2	4.7	i

Looked up above.
For ALR H2O2 inh, CC(C)[C@H](NC(=O)N1CC(=O)Nc2ccccc21)C(=O)N[C@H](Cc1ccccc1)C(=O)O has the entry -6
For Vif A3G, Cc1ccc(NC(=O)CCc2c(C)nc3ncnn3c2C)cc1 has the entry 18%

(next part)
SMILES	AF4-AF9 inh	HNF4A DNA FP	Vif A3G	ALR H2O2 inh	E coli growth	rRNA inh HTS	rRNA inh HTS OD600	rRNA inh HTS RFP	FGF22 binding
C[C@@H]1CN([C@@H](C)CO)C(=O)c2cccc(NS(C)(=O)=O)c2O[C@@H]1CN(C)S(=O)(=O)c1cn(C)cn1	-17	.	.	.	.	4	13	-1.4	i
CCOc1cccc(CNCc2cccnc2)c1OCc1ccccc1	-1.8	2.9	5%	37	0.7	1	-4	2.7	i
CCn1cc(Br)c(C(=O)Nc2ccc(C(=O)OC(C)C)cc2)n1	4.0	0.8	6%	15	0.65	-21*	-14*	1.9*	i
O=C(C1CCCO1)N1CCN(C(=S)Nc2ccc(Cl)c(Cl)c2)CC1 (centres undefined)	-3.4	-3.3	-4%	1	0.7	-4	-6	-1.4	i
O=C(NCc1ccccc1)[C@H]1[C@H](CO)[C@H]2Cn3c(ccc(-c4cccc(F)c4)c3=O)[C@@H]1N2	0.2	.	.	.	.	1	3	-0.9	i
COc1ccc(-c2ccc([C@@H]3[C@@H](CO)N(C(=O)C4CCC4)[C@H]3C#N)cc2)cc1	0.1	.	.	.	.	-1	0	0.5	i
Cc1ccc(NC(=O)c2snc3ccc(Cl)cc23)cc1C	0.9	1.6	.	.	0.74	-3	-3	-3.1	i
[N-]=[N+]=NC1C[C@H](n2ccc(=O)[nH]c2=O)O[C@@H]1CO (some centres undefined)	-1.6	0.4	?	-6	.	-14	-18	5.5	i
CCOc1c(Cl)cc(CNc2nnnn2C)cc1OC	-1.9	-3.6	-7%	2	.	2	3	1.5	i
CCOC(=O)N1CCN(CC(O)COCC2=CCC3CC2C3(C)C)CC1 (centres undefined)	.	-2.7	15%	.	0.67	.	.	.	.
CCc1cc(=O)oc2c3c(cc(OCC(=O)NCc4cccnc4)c12)OC(C)(C)CC3	-2.1	2.0	.	-12	0.74	.	.	.	i
CCOC(=O)CCNC(=O)Nc1ccc2nc(C)n(Cc3ccc(Cl)cc3)c(=O)c2c1	-2.4	3.1	-7%&0%	-3	0.67	14	16	8.4	i
CC[C@H](C)[C@@H](COC=O)NC(=O)[C@H]1O[C@@H](n2ccc(N)nc2=O)[C@H](O)[C@@H]1O	-1.1	-0.5	.	.	.	19	4	-0.1	i
CCCC#Cc1ccc([C@@H]2[C@@H](CO)N3CCCCN(C(=O)NC4CCCC4)C[C@@H]23)cc1	-5.9	.	.	.	.	-59	-75	-13	i
O=C(O)/C=C/c1cccc(NS(=O)(=O)c2ccccc2)c1	.	-3.3	.	0	0.68	.	.	.	.
O=c1c(Cl)c(N2CCOCC2)cnn1-c1ncc(C(F)(F)F)cc1Cl	-2.9	-0.2	0%	5	0.68	0	7	-2.9	i
NC(=S)N=Nc1c(O)n(C2OC(=O)c3ccccc32)c2ccccc12 (centres undefined)	.	0.6	72%	0	0.74	.	.	.	.
